EPAC2 ant val = human EPAC2 antagonism, validation; 1.7% of 16,000 active; EPAC2 Rap1B BODIPY-GDP exchange, fluorescence; Potency, µM (doses to about 112 µM), inactives show at the top dose activity, negative = inhibition, hits mostly inhibitors; active = well fitted inhibition curve with a large enough effect; inconclusive = small, poorly fitted or top-dose-only effect; inactive = no such curve, though single readings can be large or run the other way;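 also: 100% = activation by cAMP agonist control; nearly all actives have a fitted effect of over 40% in size; the record reuses the description of the EPAC1 agonist screen; inactives centre near -10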
Target sequence (Q8WZA2 whole entry, looked up): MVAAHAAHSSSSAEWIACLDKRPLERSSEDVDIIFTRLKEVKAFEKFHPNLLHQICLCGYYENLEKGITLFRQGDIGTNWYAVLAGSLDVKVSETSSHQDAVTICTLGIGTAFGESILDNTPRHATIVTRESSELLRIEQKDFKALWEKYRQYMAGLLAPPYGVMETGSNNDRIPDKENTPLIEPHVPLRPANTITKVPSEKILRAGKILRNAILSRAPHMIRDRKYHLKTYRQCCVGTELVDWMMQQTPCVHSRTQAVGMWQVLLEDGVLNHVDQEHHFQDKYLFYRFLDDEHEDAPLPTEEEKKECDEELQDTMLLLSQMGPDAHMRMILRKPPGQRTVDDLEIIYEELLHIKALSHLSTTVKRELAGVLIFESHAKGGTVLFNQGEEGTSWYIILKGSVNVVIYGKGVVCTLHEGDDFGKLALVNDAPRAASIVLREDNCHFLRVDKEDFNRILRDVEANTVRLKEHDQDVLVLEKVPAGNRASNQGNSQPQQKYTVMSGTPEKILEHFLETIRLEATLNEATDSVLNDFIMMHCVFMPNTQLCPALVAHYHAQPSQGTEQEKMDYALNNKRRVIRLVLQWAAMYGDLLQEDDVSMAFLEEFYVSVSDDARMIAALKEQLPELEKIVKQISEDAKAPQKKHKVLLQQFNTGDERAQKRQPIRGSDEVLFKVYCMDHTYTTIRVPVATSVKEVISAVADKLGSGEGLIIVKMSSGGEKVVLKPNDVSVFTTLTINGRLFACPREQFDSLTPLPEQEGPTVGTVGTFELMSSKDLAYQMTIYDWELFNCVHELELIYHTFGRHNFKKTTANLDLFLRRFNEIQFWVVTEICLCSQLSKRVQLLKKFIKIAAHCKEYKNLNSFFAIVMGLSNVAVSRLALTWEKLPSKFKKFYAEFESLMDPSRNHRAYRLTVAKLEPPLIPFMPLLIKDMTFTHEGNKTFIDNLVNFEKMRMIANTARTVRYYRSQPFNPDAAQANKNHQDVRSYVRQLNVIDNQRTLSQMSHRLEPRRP
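Fluorescent exchange read-out: 100 nM EPAC2 with 250 nM RAP1B–BODIPY-GDP and 50 uM GDP; BODIPY-GDP release lowers fluorescence. Read at 480/540 nm every 5 min for 30 min at room temperature; normalized to 6.5 mM cAMP.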
Numbers without * were called inactive; ? = inconclusive; & = joins results of further samples; ! = not active in a repeat; [ ] = dose if it differs, or a comment. Potency is read from the fitted curve at half-maximal effect. This is a subset, so the mix of outcomes need not match the whole.

SMILES	EPAC2 ant val
COC(=O)c1ccccc1-c1cc(C)cc2c1OC(CNC(=O)C1CCCO1)C2 (stereo not given)	?
C[C@@H]1[C@H](c2ccccc2)OCCS(=O)(=O)N1Cc1cccc(C(F)(F)F)c1	?
CC1(C)CC(C(=O)N2CCOc3ccc(CN4CCC(Oc5cccnc5)CC4)cc3C2)CCO1 (stereo not given)	0.4%
c1nc(N2CCNCC2)c2cc(-c3ccc4c(c3)OCO4)ccc2n1	-12.2%
C/C=C(\C)C(=O)OC1[C@@H]2C=C3C4CC(=O)OC(c5ccoc5)[C@]4(C)CCC3[C@@](C)(C2=O)C(C(O)C(=O)OC)C1(C)C (stereo not given in full)	-10.8%
CCN(CC)CCc1nc(-c2ccccc2)no1	?
COC(=O)[C@@H]1CCCN1Cc1ccc2c(c1)CN(Cc1coc3ccccc3c1=O)CCO2	1.1%
COc1cc(O)c(C(=O)c2ccccc2)cc1O	-15.7%
CC(C)=CCOc1ccc(/C=C/C(=O)c2ccc(OCC=C(C)C)cc2OCC(=O)O)cc1	-6.9%
O=C(O)C1=CC(=C(c2ccc(O)c(C(=O)O)c2)c2ccc(O)c(C(=O)O)c2)C=CC1=O	39.8µM*!
CSCC[C@H](NC(=O)[C@H](Cc1ccccc1)NC[C@@H](NC[C@@H](N)CS)C(C)C)C(=O)O	-14.4%
COCC1CCCN(Cc2ccc3c(c2)CN(C(=O)c2sc(C)nc2C)CCO3)C1 (stereo not given)	4.9%
CS(=O)(=O)Nc1cccc(-c2ccc3ncnc(NC4CCNCC4)c3c2)c1	-7.5%
CC(C)(C)C(=O)OCOC(=O)[C@@H]1N2C(=O)[C@@H](N=CN3CCCCCC3)[C@H]2SC1(C)C	-8.0%[56.6 µM]
NCCS(=O)O	6.5%&-14.3%
CC(=O)OC1CC[C@]2(C)C(CC[C@@]3(C)C2C(=O)C=C2C4C(C)C(C)CC[C@@]4(C(=O)O)CCC23C)C1(C)C (stereo not given in full)	-19.7%
O=C1CCC[C@@H]2C[C@@]3(C[C@@H]4CCN1[C@H]24)Nc1cc([N+](=O)[O-])ccc1NC3=NC1CCCCC1	?
CCN1CCCC1CNC(=O)c1cc(S(=O)(=O)CC)ccc1OC (stereo not given)	240.4%&-8.5%[activator]
CC(C)CNC(=O)c1cn(C2CCN(Cc3nc4ccccc4s3)CC2)nn1	0.0%
COc1ccccc1CNc1ccnc(-c2ccccc2C(F)(F)F)n1	?
CC(=O)c1ccc(F)c(-c2cc(C)cc3c2OC(CNC(=O)c2cccnc2)C3)c1 (stereo not given)	-24.1%
COCC(=O)N1CCC[C@@]2(CCN(C(=O)Nc3cccc(C#N)c3)C2)C1	-18.4%
NC(=NCc1ccc(Cl)cc1Cl)NC(=O)c1nc(Cl)c(N)nc1N	?
O=C1O[C@@H]2[C@@H](O)[C@H](O)O[C@@H]2[C@H]1O	-15.2%
CC[C@H](C)[C@H](NC(=O)[C@H](Cc1ccccc1)NC(=O)[C@H](C)NC(=O)[C@H](CC(=O)O)NC(=O)[C@H](CCCCN)NC(=O)[C@H](CO)NC(=O)[C@@H]1CCCN1C(=O)[C@@H]1CCC(=O)N1)C(=O)NCC(=O)N[C@@H](CC(C)C)C(=O)N[C@@H](CCSC)C(N)=O	13.1%
CCCS(=O)(=O)NCc1c(C)ncc2c1CCN(C(=O)/C=C/c1ccccc1)C2	7.8%
O=S(=O)(c1ccccc1)N1CCC2(CCN(c3ncccn3)CC2)CC1	-16.8%
OCCCNCc1cc2cc3c(cc2nc1N1CCN(c2cccc(Cl)c2)CC1)OCO3	?
CC[C@H](C)C(=O)O[C@H]1CCC=C2C=C[C@H](C)[C@H](CC[C@@H]3C[C@@H](O)CC(=O)O3)[C@H]21	?
NCC1O[C@@H](O[C@H]2C(O)C(O[C@@H]3C(O[C@H]4OC(CO)C(O)C(O)C4N)C(N)CC(N)[C@H]3O)O[C@@H]2CO)C(N)C(O)C1O (stereo not given in full)	-12.4%
O=c1[nH]c(=S)[nH]c(-c2ccccc2)c1Cc1c(O)ccc2ccccc12	-13.9%
COc1cccc(Nc2ncc3ncc(=O)n(Cc4cccs4)c3n2)c1	-13.6%
COC(=O)C1=COC(O[C@H]2OC(CO)[C@H](O)C(O)C2O)[C@H]2C1C(=O)C[C@@H]2C (stereo not given in full)	6.0%
CCCCCCCCCCCCCCCCCCO	2.6%
COC(c1ccc2c(c1)CN(C(=O)Cn1nc(C)c3ccccc3c1=O)CCO2)C1CCCCC1 (stereo not given)	-4.6%
COc1cccc(Cn2c(=O)c(C)nc3cnc(OCc4ccccc4)nc32)c1	?
c1ccc(-c2cccc(N3CC[C@@]4(CCCNC4)C3)c2)cc1	-12.2%
Cc1cc(C)nc(S[C@H]2C[C@@H](C(=O)N3CCN(c4ccccc4F)CC3)N(Cc3ccccc3F)C2)n1	?
NC1(C(=O)O)CC1	-5.4%&-7.8%
CS(=O)(=O)Nc1cccc(-c2nc(NC3CC3)c3ccccc3n2)c1	-12.4%
Cc1nc2ccc(CN(C)c3ccc(C(=O)N[C@@H](CCC(=O)O)C(=O)O)s3)cc2c(=O)[nH]1	-18.3%&25.0%
COC(=O)c1ccc(CN2CCC3(CCC(CNC(=O)c4ccco4)O3)CC2)cc1 (stereo not given)	?
COc1cc(=O)n2c(c1C(=O)NC(C)c1ccco1)CCN(Cc1ccnc3ccccc13)CC2 (stereo not given)	-13.4%
O=C(O)c1cc(=O)c2c3nc4ccccc4oc-3cc(=O)c2[nH]1	-9.0%
C[C@@H]([C@H](O)c1ccc(O)cc1)N1CCC(Cc2ccccc2)CC1	-16.8%
COc1cc(=O)n2c(c1C(=O)NCc1ccco1)CCN(Cc1ccccc1)CC2	-24.9%
COCCN(C)C(=O)c1cnn(-c2nccc(-c3cc(OC)ccc3OC)n2)c1C	14.5%
CN1CC(O)C(O)C(O)C1CO (stereo not given)	9.0%
CNC(=O)[C@H]1O[C@@H](n2cnc3c(NCc4cccc(I)c4)nc(Cl)nc32)[C@H](O)[C@@H]1O	?
CCOC(=O)C[C@H]1c2cc(F)ccc2S(=O)(=O)N1C(C)(C)C	-20.2%
O=c1c(-c2ccc(Cl)cc2)nc2cnc(N3CCOCC3)nc2n1Cc1ccc(F)cc1	0.6%
CCS(=O)(=O)Nc1cc(C(=O)N2CCC[C@H]2CO)c2c(c1)nc(-c1ccccc1)n2C	-25.6%
FCOC(C(F)(F)F)C(F)(F)F	0.4%
CCCCCCCCCCCCCCCCCC(=O)OC(CC(=O)O)C[N+](C)(C)C (stereo not given)	-19.9%
O=C(NCCc1nnc2n1CCN(Cc1ccccn1)CC2)c1ccc(F)cc1	-7.7%
N[C@@](C(=O)O)(c1ccc(P(=O)(O)O)cc1)C1CC1	-15.9%
CC(C)(C)N1[C@@H](CC(=O)O)c2cc(C(F)(F)F)ccc2S1(=O)=O	-40.6%
O=c1c(-c2cc(F)cc(F)c2)nc2cnc(N3CCOCC3)nc2n1C[C@H]1CCCO1	-2.4%
COC(=O)C1=C(C)NC(C)=C(C(=O)OC(C)C)C1c1cccc2nonc12 (stereo not given)	50.1µM*!
COC(=O)Nc1nc2ccc(Sc3ccccc3)cc2[nH]1	-20.1%[56.6 µM]

Later entries:
SMILES	EPAC2 ant val
OCC(O)CO	-3.9%
COc1ccc(-n2c(=O)c(-c3ccc(Cl)cc3)nc3cnc(N(C)C)nc32)cc1	12.5%
COc1cc2c(cc1OC)[C@@H](c1ccccc1)CN(C)CC2	-8.6%
NO	-4.4%
O=C(NCC1Cc2cc(-c3cnc4ccccc4c3)cc(F)c2O1)c1cnsn1 (stereo not given)	-16.9%
CCC[C@@H]1C[C@@H](C(=O)N[C@@H]([C@H]2O[C@H](SC)[C@H](O)[C@@H](O)[C@H]2O)[C@H](C)Cl)N(C)C1	7.0%
CC(=O)O[C@]1(C(C)=O)CC[C@H]2[C@@H]3CCC4=CC(=O)CC[C@]4(C)[C@@]3(F)[C@@H](O)C[C@@]21C	-8.4%
Cc1cc(Cn2cnc3c2C[C@@H](C(=O)O)N(C(=O)C(c2ccccc2)c2ccccc2)C3)ccc1N	1.2%
COC(=O)C[C@H]1c2cc(F)ccc2S(=O)(=O)N1Cc1ccccc1OC	?
CN1CCN(c2ncc3nc(-c4cccc(C#N)c4)c(=O)n(CCC#N)c3n2)CC1	3.6%
CCCC(C(=O)OCCN(CC)CC)(c1ccccc1)c1ccccc1	-1.1%&-26.6%
O=C(C[n+]1ccccc1Cl)c1ccc(Br)cc1	-31.8%

An excerpt taken from the entries so far, as a working copy:
SMILES	EPAC2 ant val
COc1ccc(-n2c(=O)c(-c3ccc(Cl)cc3)nc3cnc(N(C)C)nc32)cc1	12.5%
COc1cc2c(cc1OC)[C@@H](c1ccccc1)CN(C)CC2	-8.6%
NO	-4.4%
O=C(NCC1Cc2cc(-c3cnc4ccccc4c3)cc(F)c2O1)c1cnsn1 (stereo not given)	-16.9%
CCC[C@@H]1C[C@@H](C(=O)N[C@@H]([C@H]2O[C@H](SC)[C@H](O)[C@@H](O)[C@H]2O)[C@H](C)Cl)N(C)C1	7.0%
CC(=O)O[C@]1(C(C)=O)CC[C@H]2[C@@H]3CCC4=CC(=O)CC[C@]4(C)[C@@]3(F)[C@@H](O)C[C@@]21C	-8.4%

(next part)
SMILES	EPAC2 ant val
N[C@@H](CCC(=O)N[C@H](CSN=O)C(=O)NCC(=O)O)C(=O)O	-6.6%
CC(=O)C[C@H]1c2cc(C(F)(F)F)ccc2S(=O)(=O)N1C1CCCC1	-21.8%
OC(CCCN1CCCCC1)(c1ccccc1)c1ccccc1	21.4%
O=C(NCc1cccnc1)c1cnn(-c2ncc3c(n2)-c2ccccc2CCC3)c1C1CC1	-28.6%
CN1CCN(c2ncc3nc(-c4cn(C)c5ccccc45)c(=O)n(C)c3n2)CC1	7.8%
O=CN1CCc2c([nH]c3ccccc23)C1c1cccc2cccnc12 (stereo not given)	?
CCC1=C[C@@H]2CN(C1)Cc1c([nH]c3ccccc13)[C@@](C(=O)OC)(c1cc3c(cc1OC)N(C)[C@@H]1[C@@](O)(C(=O)OC)[C@H](OC(C)=O)[C@]4(CC)C=CCN5CC[C@]31[C@@H]54)C2	4.7%
CC(C)C[C@@H](CO)N1CCN(Cc2cccnc2)CCC1=O	4.4%
N[C@H](C(=O)O)[C@@H]1[C@@H](C(=O)O)C1(F)F	-11.8%&-10.2%
CC(=O)OC(C)C[N+](C)(C)C (stereo not given)	-23.1%
Cc1cc(-c2ccnc(-n3ncc(C(=O)NCCc4ccncc4)c3C)n2)c(C)s1	-15.8%
Cc1ncc2c(c1CNC(=O)c1ccccc1F)CCN(C(=O)c1ccccc1-n1cccn1)C2	-5.2%
COc1cc2oc(-c3ccccc3)cc(=O)c2cc1O	-7.8%
O=C1c2ccccc2C(=O)C1c1ccc(F)cc1	?
CC(=O)Nc1ccc(C(=O)N2CCCC(c3nc(SCc4ccccn4)ncc3C)C2)cc1 (stereo not given)	-31.2%
CN1CCN(c2ncnc3ccc(-c4ccc5c(c4)OCO5)cc23)CC1	-30.2%
O=C(NCc1nnc2n1CCN(Cc1ccc(C(F)(F)F)cc1)CC2)c1cccc(F)c1	-22.3%
CN(C)c1ccc(CN2CCOc3ccc(CN4CCC(O)(c5cccnc5)CC4)cc3C2)cc1	?
COc1ccc(-c2nc3cc(C)ccc3cc2CN(C(=O)c2ccc(C)s2)C2CC2)cc1OC	?
CC(CN(C)C)CN1c2ccccc2S(=O)(=O)c2ccccc21 (stereo not given)	23.7%
O=C(Nc1ccc(Br)cc1)c1cc(Br)c(Br)s1	-8.2%
COc1ccc(-c2coc3c(OC)c(OC)cc(O)c3c2=O)cc1	?
COc1ccccc1C1CN(Cc2cccnc2)Cc2ccccc2O1 (stereo not given)	-16.7%
COc1ccc2c(c1OC)C(Cc1ccccc1)N1CCc3cc4c(cc3C1=C2)OCO4 (stereo not given)	-27.7%
CCCCCCCCCCCCCCCCCC(=O)OCC(O)CO (stereo not given)	-29.3%
COc1ccc(Oc2ncc3nc(C)c(=O)n(CCC#N)c3n2)cc1	-19.9%
C#C[C@]1(O)CC[C@H]2[C@@H]3CCC4=CC(=O)CC[C@@H]4[C@H]3CC[C@@]21C	-23.1%
CCOC(=O)CCC(=O)O[C@H]1[C@H](O[C@@H]2[C@@H](C)[C@H](O[C@H]3C[C@@](C)(OC)[C@@H](O)[C@H](C)O3)[C@@H](C)C(=O)O[C@H](CC)[C@@](C)(O)[C@H](O)[C@@H](C)C(=O)[C@H](C)C[C@@]2(C)O)O[C@H](C)C[C@@H]1N(C)C	-14.1%
O=c1c(-c2cc(F)cc(F)c2)nc2cncnc2n1Cc1ccc(F)cc1	-8.7%
OCC1CCCN(c2nc3cc4c(cc3cc2CNCc2cccs2)OCO4)C1 (stereo not given)	4.0%
NCCc1ccn[nH]1	1.6%[56.6 µM]
CS(=O)(=O)c1ccc([C@@H](O)[C@@H](COC(=O)CN)NC(=O)C(Cl)Cl)cc1	-2.1%
CCCCCCCCCCCC(=O)OC[C@@H](O)C1OC[C@H](O)[C@H]1O (stereo not given in full)	?
CC(C)(O)C#Cc1ccc(C(=O)NCCN2Cc3ccccc3OC(c3ccccc3F)C2)o1 (stereo not given)	?
CC(C)NCC(O)c1ccc2ccccc2c1 (stereo not given)	-5.9%&-22.1%
COc1ccccc1CN1CCCC2(CCNCC2)C1	-18.1%
CCN1CCC[C@H]1CNC(=O)c1cc(S(N)(=O)=O)ccc1OC	-10.1%&0.8%&-2.0%&-19.5%
CCn1cc(C(=O)O)c(=O)c2cnc(N3CCCC3)nc21	10.5%[56.6 µM]
CCn1cc(C(=O)O)c(=O)c2cc3c(cc21)OCO3	?

High-throughput results: PubChem, National Center for Advancing Translational Sciences (NCATS)
